Assay outcomes as filed in PubChem.
Tg IFNy HTS: T. gondii growth inhibition under IFN-gamma; Toxoplasma gondii growth in IFN-gamma-treated host cells; stronger effect = lower value; reference of the scale not given here; actives 3.8% (n = 69,000); AID 1259416; activity change, negative = inhibition, %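 (about 20 µM by stock and volumes)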;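 active means below -70%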;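 further: host cells are HeLa cells infected with Toxoplasma gondii; parasite growth read as luciferase light; one replicate is shown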
Numbers without * were called inactive; i = inactive; & = joins results of further samples. The list is partial; count on the stated rates, not on these rows.

SMILES | Tg IFNy HTS
O=C(Cc1ccncc1)NCC[C@H]1CC[C@H](NS(=O)(=O)c2ccccc2Cl)[C@H](CO)O1 | -2.3
CCOC(=O)N1CCC(N2Cc3ncccc3C2=O)CC1 | -2.7
CC(C)CC1c2[nH]c3ccccc3c2CCN1C(=O)CCC(=O)N(C)C (stereo unspecified) | 36.7
O=C(c1c(O)cccc1O)N1CCCC(OCc2cccnc2)C1 (stereo unspecified) | 5.8
CCN1C[C@]23CN(C(=O)c4cn(C)c5ccccc45)C[C@@H](C[C@H]2S1(=O)=O)O3 | 2.8
CC(C)COC(=O)N(C)C[C@@H]1OCc2ccccc2-c2ccccc2C(=O)N([C@@H](C)CO)C[C@@H]1C | 0.4
Cc1cc(C)n(CCCN(C)C(=O)[C@H]2CCCO2)n1 | -5.2
COc1ccc(C(=O)O/N=C2/C(=O)N(C)c3ccccc32)cc1 | -100.2*
C[C@@H]1CN([C@H](C)CO)C(=O)c2ccccc2-c2ccccc2CO[C@@H]1CN(C)C(=O)[C@@H]1CCCN1C | 13.9
Nc1cccc(-c2cccc3ccnn23)n1 | 6.0
Cc1cncc(C(=O)N(C)CCCOc2c(C)cccc2C)c1 | -6.6
COC(=O)CCN1CC(OCc2cccc(OC)c2)CN(C(=O)c2ccsc2)CC1=O (stereo unspecified) | 17.3
O=C(CC12CC3CC(CC(C3)C1)C2)N1CCN2CCCC2C1 (stereo unspecified) | -3.8
Cc1nn(C)cc1-c1csc(NC(=O)C2OCCc3ccccc32)n1 (stereo unspecified) | 11.2
CC(C)N(CCCc1ccccc1)C(=O)c1ccc[nH]1 | -8.3

Random excerpt: 2 entries already listed.
SMILES | Tg IFNy HTS
Cc1cncc(C(=O)N(C)CCCOc2c(C)cccc2C)c1 | -6.6
Nc1cccc(-c2cccc3ccnn23)n1 | 6.0

(list continues)
SMILES | Tg IFNy HTS
COCCN(C)C(=O)c1ncn2c(C3CCN(S(C)(=O)=O)CC3)ccnc12 | -56.3
COc1cccc(CN2CCN(Cc3cccc(SC)c3)CC2=O)c1 | -46.4
O=C(O)CN(CC(=O)Nc1cccnc1)Cc1ccccc1 | -17.6
NC(=O)CSc1nnnn1C1CCCCC1 | -1.8
O=C(NC1CCN(Cc2ccccc2)CC1)c1csc(-c2ccc(N3CCCC3)nc2)n1 | -85.3*
CC(C)NC(=O)N1[C@H](CO)[C@@H](c2ccccc2)C12CN(Cc1cc(F)cc(F)c1)C2 | -42.2
O=C(CN1C(=O)c2cccc3cccc(c23)C1=O)OCCCc1ccncc1 | -73.4*
NC(=O)[C@@H]1CCCN1C(=O)c1cn(-c2ccccc2)nn1 | -11.3
Cc1nnc2ccc(OCC(=O)O)nn12 | -8.5
Cc1ccc(NC(=O)c2snc3c(=O)[nH]cnc23)cc1 | -110.9*
CCCn1ccnc1CN1CC(N2CCCCC2C)C1 (stereo unspecified) | -0.5
O=C(c1cncc(F)c1)N1CCCC2(CC1)CCN(CC1CC1)C2=O (stereo unspecified) | -10.1
O=C(CSC1=NCCc2ccccc21)c1ccc(-c2ccccc2)cc1 | -51.4
CN(C)C(=O)c1cccc(-c2ccc3c(c2)[C@H]2[C@H](CCN2C(=O)c2cnccn2)[C@H](CO)N3)c1 | -7.5
CCc1nnsc1C(=O)N(C)CCc1nc2c(C)cccc2[nH]1 | -7.6

Carrying on:
SMILES | Tg IFNy HTS
COc1ccc2c3c(n(C)c2c1)[C@H](CO)N(Cc1ccncc1)CC31CN(C(=O)C2CCCCC2)C1 | -50.5
CN(C)C(=O)NC[C@@H]1CCC[C@]2(CCN(Cc3nccs3)C2)O1 | 9.7
COc1ccc(CNC(=O)Cn2ncc3c(N4CCCC4)ncnc32)cc1 | 24.7
Cc1occc1C(=O)N1CCC2(CCC2NC(=O)c2cnccn2)CC1 (stereo unspecified) | 1.2
Cc1ccc(Nc2nc(C(=O)NCc3ccc(OC(C)C)cc3)nc3ccccc23)cc1 | -30.4
O=C(O)CCn1cnc2ccccc2c1=O | 17.5
Cc1noc(C)c1-c1nc(CSCc2ccc(Cl)cc2)no1 | -34.8
O=C(NCC1Cn2nnc(-c3cccc(F)c3)c2CO1)[C@H]1CCCO1 (stereo partly specified) | -26.9
CN(CCO)c1ccc(-c2nccn2-c2ccc3cn[nH]c3c2)cc1 | 2.9
Oc1ccc(O)c(Cc2nc3ccccc3s2)c1 | -93.2*
CN(c1ccccc1)c1ccc2ccc(C(=O)CCN3CCOCC3)cn12 | 237.8
CCCC#Cc1ccc([C@H]2[C@H](CO)N3C(=O)CN(C(=O)Nc4cccc(F)c4)C[C@@H]23)cc1 | -16.8
C[C@@H]1CCCCO[C@H](CN(C)CC2CCCCC2)[C@@H](C)CN([C@H](C)CO)C(=O)c2cc(NC(=O)Nc3ccc(C(F)(F)F)cc3)ccc2O1 | 103.8
CC(C)NC(=O)CN1C[C@H](C(=O)N(C)C)[C@]2(COc3ccccc3C(=O)N2)C1 | -14.1
COc1ccc(CN(C(=O)c2ccc(C)cc2)C2(C(=O)NCc3ccccc3)CCN(C(C)=O)CC2)cc1 | -36.3

An excerpt of these results, as labelled records:
> CN(C)C(=O)NC[C@@H]1CCC[C@]2(CCN(Cc3nccs3)C2)O1
  Tg IFNy HTS: 9.7
> COc1ccc(CNC(=O)Cn2ncc3c(N4CCCC4)ncnc32)cc1
  Tg IFNy HTS: 24.7

(continued)
SMILES | Tg IFNy HTS
CCOc1ccccc1NC(=O)CCN1CCC(C(=O)NC)C1 (stereo unspecified) | -43.8
CN(C)C(=O)CN1CCC2(CCCN2C(=O)c2ccno2)CC1 | 48.0
CCOC(=O)c1nn(CCCc2ccccc2)c2c1CN(Cc1nc3ccccc3[nH]1)CC2 | -16.5
O=C(NCCc1csc(-c2ccc(Cl)cc2)n1)c1cccc(C(F)(F)F)c1 | -13.7
CN(C)S(=O)(=O)c1ccc2c(c1)cc(C(=O)NCCc1ccccc1)n2Cc1ccncc1 | 69.5
C[C@H]1CN([C@@H](C)CO)C(=O)CCCn2nncc2CO[C@H]1CN(C)C(=O)Nc1ccc2c(c1)OCCO2 | i
CCCCOc1ccccc1-c1cc2c(=O)n(Cc3nc(-c4ccc(C)cc4)oc3C)ccn2n1 | 62.7
CC(=O)N1[C@H](CO)[C@@H]2c3ccccc3N(S(=O)(=O)c3ccccc3C)C[C@@H]21 | -7.6
COc1ccccc1C(=O)N1C[C@H]2[C@@H](c3ccccc31)[C@@H](CO)N2C(=O)Cc1ccccc1 | -2.5
Cc1ccc(SCc2cc(=O)oc3cc(O)ccc23)cc1 | -28.7
COC(=O)C[C@H]1CC[C@H]2[C@@H](COC[C@H](O)CN2S(=O)(=O)c2ccccc2OC)O1 | 9.8
Cc1cc(=O)oc2cc(OCCO)ccc12 | 3.1
COc1ccc(CNC(=O)C[C@@H]2C=C[C@H](NC(=O)c3cccc(F)c3)[C@H](CO)O2)cc1 | -30.9
Fc1cccc(CNc2c3c(nc4cc(-c5cccc(Cl)c5)nn24)CCC3)c1 | -90.3*
Cn1ccnc1CN1CCCC(O)(c2nccn2C)CC1 (stereo unspecified) | -45.3

New compounds follow.
smiles	Tg IFNy HTS
CCCC(=O)N1CCC2(CC1)CN(C(C)=O)[C@H](CO)c1c2c2ccc(OC)cc2n1C	100.9
COc1ccc2c3c(n(C)c2c1)[C@H](CO)N(CC1CC1)CC31CCN(C(=O)c2cccc(F)c2)CC1	12.4
O=C(CCN1CCCCC1)N[C@@H]1CC[C@@H](CCn2cc(-c3cccc(F)c3)nn2)O[C@@H]1CO	-15.4
COc1cccc(COC2CN(CCc3ccccc3)C(=O)CN(C(=O)c3cccnc3)C2)c1 (stereo unspecified)	8.5
CN(C)CC1(O)CCN(C(=O)c2cccc3ccnn23)C1 (stereo unspecified)	-40.0
CCCCOc1ccc(CNC(=O)Cn2ncc3c(N4CCCCCC4)ncnc32)cc1	-98.5*
OCCCCn1cnc(-c2ccccc2)c1-c1ccc2cccc(Cl)c2n1	-88.5*
Cc1cc(C(=O)N2C[C@H]3CC[C@H]2C3)c2cc(F)ccc2n1	1.8
O=C(NC1CCCC1)N1CCCCN2[C@@H](CO)[C@@H](c3ccc(-c4cccnc4)cc3)[C@@H]2C1	-34.8
CSc1nnc(SC)n1CCNC(=O)Nc1cccc(Cl)c1	-80.6*

4 structures from above, arranged by heavy-atom count, descending.
smiles	Tg IFNy HTS
CCCCOc1ccc(CNC(=O)Cn2ncc3c(N4CCCCCC4)ncnc32)cc1	-98.5*
CCCC(=O)N1CCC2(CC1)CN(C(C)=O)[C@H](CO)c1c2c2ccc(OC)cc2n1C	100.9
CSc1nnc(SC)n1CCNC(=O)Nc1cccc(Cl)c1	-80.6*
CN(C)CC1(O)CCN(C(=O)c2cccc3ccnn23)C1 (stereo unspecified)	-40.0

Next entries
smiles	Tg IFNy HTS
CCc1[nH]c2c(CNS(=O)(=O)c3cccnc3)cc(C)cc2c1C	-15.8
Cc1ccc2c(n1)N(CCN(C)C)CCN(C(=O)c1ccc[nH]1)C2	1.0
CCn1c(=O)c(-c2nc(-c3cccc(Br)c3)no2)c(O)c2ccccc21	-41.4
CN(C)c1ccc(CN2CC3(CCN(S(=O)(=O)c4ccccc4)C3)C2)cc1	7.5
CCCNC(=O)N1C[C@H]2[C@@H](c3ccccc31)[C@H](CO)N2C(=O)CN1CCOCC1	6.2
COC1(C2=NCCN2)COc2ccccc2O1 (stereo unspecified)	17.6&-4.0
Cc1nc(NC(=O)CCC(=O)N2CCC(c3ccccc3)C2)sc1C (stereo unspecified)	12.0
CCNC(=O)C[C@H]1CC[C@@H]2[C@H](COC[C@@H](O)CN2C(=O)c2ccccn2)O1	16.3
COc1ccc(CC(=O)N2CCC3(CC2)Nc2cc(OC)ccc2-n2cccc23)cc1	51.2
O=C(CCCN1C(=O)c2cccc3cccc(c23)C1=O)OCc1ccc2c(c1)OCO2	-1.4

More records follow.
smiles	Tg IFNy HTS
CCc1ccc(S(=O)(=O)N2CCC(c3nc(C(=O)N4CCOCC4)c(C)o3)CC2)cc1	-50.8
Cc1oc2ccc(OC(=O)c3cccs3)cc2c1C(=O)OC(C)C	46.7
Cc1noc(C)c1NC(=O)Nc1ccc2c(c1)C(=O)N([C@@H](C)CO)C[C@H](C)[C@H](CN(C)S(=O)(=O)c1cccs1)OCCCC[C@H](C)O2	311.8
CNc1ccc2nnc(C(F)(F)C(F)(F)C(F)(F)F)n2n1	9.5
Cn1nnnc1SCC(=O)OC1CCCCC1	-13.4
CCCCOc1ccc(-c2cc3c(=O)n(Cc4nc(-c5ccccc5OC)oc4C)ccn3n2)cc1	54.4
Cc1csc(N)n1	-14.9
CN(C)c1ccc(NC(=O)Nc2ccccc2)cc1	203.6
Cc1sc(NC(=O)c2ccc(Cl)cc2)c(C(=O)c2ccc(Cl)cc2)c1C	-46.2
C=CCc1cccc2cc(C(=O)Nc3ccc(CC(=O)O)cc3)c(=O)oc12	-33.1

Continuation.
smiles	Tg IFNy HTS
CS(=O)(=O)N1C[C@H]2CNC[C@@]2(C(=O)N2CCCCCC2)C1	-4.1
CCCC(=O)Nc1ccc2c(c1)C(=O)N(C)C[C@@H](OC)[C@H](C)CN(C(=O)c1ccccn1)[C@H](C)CO2	3.8
CN(CCc1ccc(Cl)c(Cl)c1)CC(O)COc1ccc(NS(C)(=O)=O)cc1 (stereo unspecified)	4.7&-8.8
CC(=O)Nc1ccccc1OC(=O)N1CCOCC1	0.1
COc1cccc(N2C(=O)CN=C2Nc2nc(C)cc(C)n2)c1	-4.2
CCN1c2ccccc2C(=O)NC12CCN(C(=O)c1ccc3c(c1)OCO3)CC2	59.1
Cc1cccc(-c2nccn2C(C)Cn2nc(C)cc2C)n1 (stereo unspecified)	1.4
COc1cc(N2CC[C@H](O)[C@@H]2Cc2ccccc2)ncn1	27.6
C=CCNC1CCCC1(CC=C)C(=O)OCC (stereo unspecified)	38.0
O=C(Nc1cccc(C(F)(F)F)c1)Nc1csc(Cc2ccsc2)n1	-93.3*

(list continues)
smiles	Tg IFNy HTS
COC(=O)c1cccc(CS(C)(=O)=O)c1	66.3
COc1ccc(-c2[nH]ncc2CNC(=O)CC2COCCN2)cc1 (stereo unspecified)	-21.3
C[C@H](NC(=O)c1sccc1OCc1ccc(Cl)cc1)c1ccccc1	35.5
O=C(CNC(=O)c1ccco1)Nc1cccc(-c2cn3cccnc3n2)c1	15.0
Cc1ccc(S(=O)(=O)N2CCC3(CC2)CN(c2ccc4c(c2)OCO4)C3=O)cc1	2.1
Cc1c(-c2ccnc(SCc3ccccc3)n2)sc2ccc(Cl)cc12	15.7
Cc1ccsc1[C@@H]1CCN(Cc2ccnc(C(C)C)n2)C[C@H]1O	10.9
COC1CN(C(=O)Cn2nc(-c3ccccc3)c3ccccc3c2=O)CC(=O)N(Cc2ccccc2)C1 (stereo unspecified)	0.0
Cc1cccc(NC(=O)c2c(O)c3ccccc3[nH]c2=O)c1	237.3
Cc1cc(C)n(-c2cccc(-c3ccc(S(N)(=O)=O)s3)c2)n1	7.1

A second format for some results above:
COC(=O)c1cccc(CS(C)(=O)=O)c1
- Tg IFNy HTS: 66.3

Cc1cccc(NC(=O)c2c(O)c3ccccc3[nH]c2=O)c1
- Tg IFNy HTS: 237.3

New compounds follow
smiles	Tg IFNy HTS
COc1ccc(CN2CC[C@H](CO)[C@H](O)C2)cc1Cn1cccn1	6.6
CCN1c2cc(C)ccc2-n2cccc2C12CCN(C(=O)NC(C)C(=O)OC)CC2 (stereo unspecified)	62.9
Cc1ccc(NC(=O)c2c(O)c3ccccc3n(-c3ccccc3)c2=O)cc1F	95.9
Cc1cc(C)n(-c2nc(C(=O)NCCOc3ccc(F)cc3)cs2)n1	11.5
C=C(C)COc1ccccc1C(=O)N1Cc2ccccc2CC1C(N)=O (stereo unspecified)	-2.8
Cc1cc2nc(C(NS(=O)(=O)c3cnn(C)c3C)C(C)C)cc(=O)n2[nH]1 (stereo unspecified)	3.3
Cc1ccc(-c2nnc(SCC(=O)c3ccc4c(c3)n(C)c(=O)n4C)n2C)cc1	-97.8*
Cn1c(C(=O)OCC(=O)NCCc2ccccc2)cc2occc21	3.7
CCc1cc(-c2cccc(-n3cccn3)c2)ccc1NC(C)=O	325.7
Nc1nc(CSCCO)nc(Nc2ccc(F)cc2)n1	34.8
COc1ccccc1OC(C)(C)C(=O)N1CCC(O)(CN(C)C)C1 (stereo unspecified)	-1.3
COc1ccc(C(=O)NCCc2sc(-c3ccc(F)cc3)nc2C)cc1	-21.7
CCCc1c(-c2ccccc2)ncn1CCCSC	-15.6
